LASV entry inh: blocks Lassa virus binding to or entry into cells; Lassa virus pseudotype entry inhibition, cell reporter; control for the full effect not named in the record; Potency, µM (top dose mostly 37.9 µM), for inactives: at the top dose activity change, negative = inhibition, actives largely listed as inhibitors; 300,000 compounds, 1.2% hits; active means well fitted inhibition curve with a large enough effect; inconclusive means small, poorly fitted or top-dose-only effect, or effect the other way; inactive means flat fitted curve, though single readings scatter; tested in HEK293 cells; note: % is set by controls: 0 for no effect and ±100 for the full control effect; nearly all actives have a fitted effect of over 50% in size; luciferase read-out
MARV entry inh: blocks Marburg virus binding to or entry into cells. Potency, µM (series often up to 37.8 µM), without a hit: at the top dose activity change, negative = inhibition, hits mostly inhibitors. Marburg virus pseudotyped entry inhibition, cell reporter; control for the full effect not named in the record; about a third of the inactives were read at about 46 µM. 300,000 compounds, 1.8% hits. AID 540276; active = well fitted inhibition curve with a large enough effect; inconclusive = small, poorly fitted or top-dose-only effect, or effect the other way; inactive = flat fitted curve, though single readings scatter; tested in HEK293 cells; about a fifth of its hits are not listed in these tables; note: % is set by controls: 0 for no effect and ±100 for the full control effect; luciferase read-out
Cruzain inh noDet: inhibitors of Trypanosoma cruzi cruzain without detergent; Potency, µM, for the others: max response, negative = inhibition, actives largely listed as inhibitors; P25779; purified cruzain, Z-FR-AMC fluorescence, no detergent; 200,000 compounds, 2.3% hits; active = well fitted curve in the direction sought with a large enough effect; inconclusive = small, poorly fitted or top-dose-only effect, or another doubt; inactive = no such curve, though single readings can be large; an effect the other way counts as inactive or inconclusive;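 note: plate controls were enzyme without inhibitor for no effect and buffer without enzyme for full effect; nearly all actives have a fitted effect of over 40% in size; top concentration of the series not given in the record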
Target sequence (P25779 123-467 limits assumed): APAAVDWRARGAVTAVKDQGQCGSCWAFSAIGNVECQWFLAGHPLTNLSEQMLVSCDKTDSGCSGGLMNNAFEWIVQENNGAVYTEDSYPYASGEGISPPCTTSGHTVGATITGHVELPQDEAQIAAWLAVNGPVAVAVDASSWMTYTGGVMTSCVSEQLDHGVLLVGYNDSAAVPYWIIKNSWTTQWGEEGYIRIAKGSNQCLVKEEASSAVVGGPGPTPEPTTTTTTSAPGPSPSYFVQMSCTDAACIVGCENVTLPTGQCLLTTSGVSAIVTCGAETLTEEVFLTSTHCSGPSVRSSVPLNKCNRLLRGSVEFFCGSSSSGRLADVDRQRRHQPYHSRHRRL
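Purified cruzain at 1.5 nM, pre-incubated 15 min with compound at room temperature in 100 mM sodium acetate pH 5.5, 5 mM DTT, 0.00005% Triton X-100. Reaction started with 2 uM Z-FR-AMC; AMC fluorescence increase over 60 s gives rate.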
StopGo reporter: lowers the luciferase signal of an FMDV 2A StopGo reporter. human cells with a luciferase reporter of 2A StopGo recoding; control for the full effect not named in the record. Potency, µM (highest dose often 57.9 µM), inactives show at the highest dose signal change, negative = less light. 410,000 compounds, 1.2% hits; active = well fitted falling curve with a large enough effect; inconclusive = small, poorly fitted or top-dose-only effect; inactive = no such curve, though single readings can be large or run the other way; tested in HEK293T cells; note: % is set by controls: 0 for no effect and ±100 for the full control effect; nearly all actives have a fitted effect of over 45% in size; luciferase light after 4 h
RE007 growth inh: less growth of the S. pombe RE007 Vpr strain | S. pombe RE007 Vpr strain, BacTiter-Glo ATP luminescence, 24 h; control for the full effect not named in the record | Potency, µM (titrated, usually from 92.2 µM), for inactives: at the top dose activity change, negative = less growth | 360,000 compounds, 0.21% hits | AID 651644; active = well fitted falling curve with a large enough effect; inconclusive = small, poorly fitted or top-dose-only effect; inactive = no such curve, though single readings can be large or run the other way;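 note: % is set by controls: 0 for no effect and ±100 for the full control effect; nearly all actives have a fitted effect of over 50% in size; the assay follows cell death caused by Vpr and the record does not say whether a fall means rescue or toxicity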
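Fission yeast RE007 carrying one integrated HIV-1 vpr copy, seeded at OD 0.01 in PMG+AL medium with 23 nL pinned compound. Grown 24 h at 30 degrees; viability read by BacTiter-Glo luminescence after 5 min.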
SARS PLpro yeast: blocks SARS-CoV papain-like protease in a yeast assay | S. cerevisiae expressing SARS-CoV PLpro, growth rescue; control for the full effect not named in the record | Potency, µM (highest dose often 32.9 µM), without a hit: at the top dose activity, positive = growth rescue | 330,000 compounds, 0.19% hits; note: 0% is about no effect; nearly all actives have a fitted effect of over 55% in size; growth read by luminescence after 48 h
Cruzain Triton: inhibitors of Trypanosoma cruzi cruzain with detergent. P25779. Potency, µM, inactives show max response, negative = inhibition, hits mostly inhibitors. 200,000 compounds, 0.43% hits. purified cruzain, Z-FR-AMC fluorescence, 0.01% Triton. AID 1478; active = well fitted curve in the direction sought with a large enough effect; inconclusive = small, poorly fitted or top-dose-only effect, or another doubt; inactive = no such curve, though single readings can be large; an effect the other way counts as inactive or inconclusive;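 note: plate controls were neutral wells for no effect and buffer without enzyme for full effect; nearly all actives have a fitted effect of over 40% in size; top concentration of the series not given in the record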
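Cruzain (1.5 nM) preincubated 15 min at RT with compound in 100 mM sodium acetate pH 5.5, 5 mM DTT, 0.01% Triton X-100. Reaction started with 2 uM Z-FR-AMC; AMC fluorescence (ex 360/em 450 nm) change over 60 s gave rate.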
NS1 inh: influenza NS1 inhibition | Potency, µM (highest dose often 46.1 µM), without a hit: top-dose activity, positive = more growth | 270,000 compounds, 0.4% hits | S. cerevisiae slowed by influenza A NS1, growth recovery by OD600; note: actives are rising curves; nearly all actives have a fitted effect of over 50% in size
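Compounds were scored for reversing the slow growth caused by influenza A NS1 in S. cerevisiae, measured by optical density at 600 nm. Assay medium contained 2% galactose at pH 6.0; NS1-free yeast of the same strain were the positive control.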
* = called active by the depositor; ? = inconclusive; nt = no result given; [ ] = remark or other dose. Unless noted, calls come from the whole dose curve; as a rule, active means well fitted rising curve with a large enough effect; inconclusive means small, poorly fitted or top-dose-only effect; inactive means no such curve, though single readings can be large or run the other way. Potency is the fitted concentration of half-maximal effect.

The first 3 records, to show the layout:
SMILES	LASV entry inh	MARV entry inh	Cruzain inh noDet	StopGo reporter	RE007 growth inh	SARS PLpro yeast	Cruzain Triton	NS1 inh
CC(=O)NC(c1ccc2ccccc2c1)c1ccc2cccnc2c1O (stereo not drawn)	?	?	nt	-13%	?	-22%	nt	-72%
COC(=O)/C(C#N)=C\c1c(OC)[nH]c2ccccc12	nt	nt	nt	-12%	6%	0%	nt	-2%
O=C(NCc1ccncc1)C(=O)NCc1ccncc1	nt	18%[46.1 µM]	nt	-9%	1%	1%	nt	4%

The list itself, repeating the preview:
SMILES	LASV entry inh	MARV entry inh	Cruzain inh noDet	StopGo reporter	RE007 growth inh	SARS PLpro yeast	Cruzain Triton	NS1 inh
CC(=O)NC(c1ccc2ccccc2c1)c1ccc2cccnc2c1O (stereo not drawn)	?	?	nt	-13%	?	-22%	nt	-72%
COC(=O)/C(C#N)=C\c1c(OC)[nH]c2ccccc12	nt	nt	nt	-12%	6%	0%	nt	-2%
O=C(NCc1ccncc1)C(=O)NCc1ccncc1	nt	18%[46.1 µM]	nt	-9%	1%	1%	nt	4%
COc1ccccc1NC(=O)CN(c1ccccc1)S(=O)(=O)c1ccccc1	nt	nt	nt	-2%	-11%	0%	nt	12%
Cc1ccc(S(=O)(=O)N(C)C)cc1NC(=O)C(C)OC(=O)c1cc[n+]([O-])cc1 (stereo not drawn)	?	-19%	nt	-13%	8%	-3%	nt	nt
Fc1ccc(-c2cnc[nH]2)cc1	?	?	0%	30%	2%	-3%	-0.3%	-1%
COc1ccc(CCNc2c([N+](=O)[O-])c(=O)oc3ccccc23)cc1OC	-4%	-9%	-14%	6%	1%[3.69 µM]	4%	1.2%	0%
CC1(NC(=S)Nc2ccc(NC(=S)NC3(C)CCS(=O)(=O)C3)cc2)CCS(=O)(=O)C1 (stereo not drawn)	nt	nt	nt	-24%	6%	0%	nt	8%
Cc1cc(C(=O)CSc2n[nH]c(N)n2)c(C)n1-c1cccc(F)c1	18%	-27%	-10%	nt	4%	-2%	-0.7%	5%
COc1ccc(-c2ncccc2O)cc1	18%	25%	?	4%	-25%	-4%	-14%	0%
Cc1cc(OCC(=O)N2CCC(C(=O)O)CC2)c2c(C)cc(=O)oc2c1	nt	nt	nt	-9%	3%	?	nt	1%
Cc1cccc(CS(=O)(=O)Cc2ccc(C(=O)NCc3ccc(Cl)cc3)o2)c1	-12%[46.1 µM]	nt	4%	?	nt	nt	-0.9%	nt
Cc1cc(C)nc(/N=C2\NC(=O)CC(C(=O)O)N2c2ccc(Cl)cc2)n1 (stereo not drawn)	nt	nt	-7%	-4%	4%	4%	4.0%	1%
O=C1CCCC(O)=C1N=Nc1cccc(C(=O)O)c1	?	?	nt	-24%	1%	-4%	nt	nt
Cc1ccc(C(=O)NCCn2ccc3ccccc32)cc1[N+](=O)[O-]	-25%	?	nt	21%	2%	-2%	nt	nt
Cc1cccc(C(=O)OCc2cc(=O)oc3c(C)c(C)ccc23)c1O	3%	13%[46.1 µM]	nt	15%	9%	7%	nt	-3%
COc1ccc(N2CCOCC2)c(NC(=O)COc2cccc(C)c2)c1	-10%	-6%	nt	-15%	5%	-4%	nt	0%
COc1ccc(OC)c(N(CC(=O)Nc2ccccc2C(=O)NCc2ccco2)S(C)(=O)=O)c1	1%	-7%	-2%	12%	-2%	-3%	-1.9%	0%
COc1cc(/C=N/NC(=O)CC#N)cc(Br)c1O	-16%	-3%[46.1 µM]	nt	-13%	2%	2%	nt	15%
O=S(=O)(c1ccccc1)c1nc(-c2cccs2)oc1NCCCn1ccnc1	5%	0%	-5%	10%	6%	8%	-0.1%	-9%
CC(C)(C)OC(=O)N1CCC(N2CCN(Cc3ccccc3)C(=O)C2=O)CC1	-8%[46.1 µM]	nt	8%	-1%	nt	nt	0.4%	nt
CCOC(=O)c1c(NC(=O)C2CCCO2)sc(C(=O)OC(C)(C)C)c1C (stereo not drawn)	?	16%[46.1 µM]	?	-23%	-18%	12%	0.9%	-1%
CC(C)Oc1nc(-c2ccccc2O)nc2ccccc12	8%	7%	-7%	36%[activator]	7%	-1%	-0.4%	-6%
COc1ccc(OC)c(C(=O)c2ccc([N+](=O)[O-])cc2)c1	-1%[46.1 µM]	5%[46.1 µM]	nt	-7%	-14%	nt	nt	nt
COc1ccc(NC(=O)C2(S(=O)(=O)c3ccc(C)cc3)CC2)c(OC)c1	-8%[46.1 µM]	?	-13%	-10%	nt	nt	-5.4%	nt
COc1ccc2cc3c(N)nn(C(=O)c4ccc(F)cc4)c3nc2c1	nt	nt	nt	-24%	-7%	0%	nt	-2%
FC(F)Oc1ccc(/C=N/c2c(-c3ccc(OC(F)F)cc3)nc3n2CCS3)cc1	2%	7%[46.1 µM]	27%	6%	11%	-19%	-11%	13µM*
O=C(c1cccc([N+](=O)[O-])c1)N1CC2C3C=CC(C3)C2C1 (stereo not drawn)	-1%[46.1 µM]	4%[46.1 µM]	nt	3%	-9%	-3%	nt	nt
COc1ccc(NC2=CC(c3cccc(OC)c3)N(c3ccc(OC)cc3)C2=O)cc1 (stereo not drawn)	?	1%	?	-7%	-25%	-10%	-1.3%	24%
Cc1nc2sccc2c(=O)n1-c1cccc(Cl)c1	2%	-13%[46.1 µM]	3%	1%	15%	14%	1.3%	1%
CC(C)NC(=O)COC(=O)c1ccc(S(=O)(=O)N2CCCC2)cc1	12%	17%[46.1 µM]	nt	-11%	0%	0%	nt	nt
O=S(=O)(Nc1cccc(-n2cnnn2)c1)c1cc(Cl)ccc1Cl	nt	nt	nt	55%[activator]	6%	-9%	nt	-3%
Cc1ccccc1-n1c(=O)cc(NCc2ccc3c(c2)OCO3)[nH]c1=O	11%	21%	-8%	-21%	7%	12%	4.2%	?
COc1ccc(OC)c(NC(=O)COC(=O)/C=C/c2c(C)nn(C3CCS(=O)(=O)C3)c2Cl)c1 (stereo not drawn)	-2%	-6%	-5%	0%	-7%	5%	-1.0%	?
COc1ccc(/C=C/C(=O)c2cc3c(cc2N)OCO3)cc1	6%	?	nt	55%[activator]	?	-23%	nt	nt
CCN(C(=O)CSc1nc(-c2cccs2)nc2ccccc12)C1CCS(=O)(=O)C1 (stereo not drawn)	-17%	-5%	nt	-25%	1%	-27%	nt	nt
CC(=O)c1c(C)nn(C(=O)N2CCOCC2)c1C	6%	-10%	5%	-25%	2%	4%	2.4%	0%
O=c1/c(=C/c2ccccn2)sc2n1CN(c1ccccc1)CN=2	2%	14%	?	20%	-7%	?	-4.5%	4%
CN(CC(=O)NCC1COc2ccccc2O1)S(=O)(=O)c1ccc(Cl)cc1 (stereo not drawn)	5%	15%	nt	-6%	-25%	1%	nt	nt
Cc1ccc(C)c(Cn2nnc3c(=O)[nH]c(C4CCCN(S(=O)(=O)Cc5ccccc5)C4)nc32)c1 (stereo not drawn)	?	3%[46.1 µM]	nt	-15%	0%	-2%	nt	3%
O=C1COC(c2ccccc2)C2CCCCN12 (stereo not drawn)	-5%	-3%	-4%	-10%	7%	16%	2.8%	4%
CCOc1cc(C(=O)N2CCN(c3ccccn3)CC2)cc(OCC)c1OCC	?	-10%	nt	-19%	-5%	-3%	nt	-51%
Cc1nn(-c2ccc3nnc(Br)n3n2)c(C)c1Br	nt	nt	-7%	nt	nt	-4%	1.8%	4%
CCn1c(SC(C)C)nnc1C1CCN(S(=O)(=O)c2ccc(OC)cc2)CC1	-12%	-6%	10%	-6%	6%	4%	4.9%	15%
O=C(Nc1cccc(C(F)(F)F)c1)c1cc2ncc(Br)cn2n1	1%	-9%	-3%	-11%	12%	-9%	-0.2%	-5%
CC1=NNC(=O)C1CCC(=O)N/N=C/c1ccc(C)cc1 (stereo not drawn)	-4%	-1%[46.1 µM]	nt	2%	-10%	0%	nt	2%
O=C([C@H](Cc1ccccc1)N1C(=O)c2ccccc2C1=O)N1CCOCC1	0%[46.1 µM]	?	nt	5%	2%	-8%	nt	-10%
O=C1C2C3c4ccccc4C(c4ccccc43)[C@@H]2C(=O)N1c1nc(-c2ccccc2)cs1 (stereo partly drawn)	-3%	0%	13µM*	-13%	-16%	2%	-4.2%	18%
Cc1cc(NC(=O)Nc2ccccc2Cl)no1	17%	7%	nt	43%[activator]	3%	-10%	nt	-30%
CC(C)(C)c1ccc(OCCCN2CCCC2)cc1	nt	nt	nt	-3%	7%	1%	nt	-6%
(next part)
SMILES	LASV entry inh	MARV entry inh	Cruzain inh noDet	StopGo reporter	RE007 growth inh	SARS PLpro yeast	Cruzain Triton	NS1 inh
COc1ccc(NS(=O)(=O)c2csc(C(=O)N3CCCC3)c2)cc1	nt	nt	nt	-2%	15%	12%	nt	8%
COc1ccccc1N1CCN(S(=O)(=O)c2ccc(-c3cc(C(F)(F)F)on3)s2)CC1	0%[46.1 µM]	nt	-25%	0.89µM*	nt	nt	-5.9%	nt
CCOC(=O)c1c(N)c(C#N)c2n1CCCC2	2%	?	4%	0%	-3%	-3%	1.9%	-47%
O=C(NC1CCCCC1)NC1CC2CCC(C1)N2C(=S)NCc1ccco1 (stereo not drawn)	2%	-6%	6%	nt	-9%	-3%	-0.9%	-4%
CCOc1ccccc1N1CCN(C(=O)c2cc3c(C)cc(C)cc3[nH]2)CC1	?	?	nt	-24%	7%	-4%	nt	12%
COc1ccc(NC(=O)CN2CCC3(O)CCCCC3C2c2cc(OC)ccc2OC)cc1 (stereo not drawn)	0%	-28%	12%	?	10%	9%	1.4%	-7%
Cn1c(COc2ccc([N+](=O)[O-])cc2)nnc1SCC(N)=O	-16%	?	nt	0%	12%	2%	nt	7%
O=C(CN(C(=O)c1csnn1)c1ccc(F)c(Cl)c1)NC1CCCC1	7%	-2%[46.1 µM]	nt	11%	-7%	11%	nt	18%

No enrichment for hits, and some 4.5% of all compounds hit somewhere here.
